HPGD block – blocks human HPGD enzyme activity | purified HPGD, NADH fluorescence kinetic, PGE2 substrate | Potency, µM, inactives show top-dose activity change, negative = inhibition, usual class: inhibitors | 150,000 tested, 4.3% active; active = well fitted inhibition curve with a large enough effect (not every such curve was filed as active); inconclusive = small, poorly fitted or top-dose-only effect, or another doubt; inactive = no such curve, though single readings can be large or run the other way;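 note: top concentration of the series not given in the record; plate controls included wells without enzyme; inactives centre near -10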
Target sequence (P15428 whole entry, looked up): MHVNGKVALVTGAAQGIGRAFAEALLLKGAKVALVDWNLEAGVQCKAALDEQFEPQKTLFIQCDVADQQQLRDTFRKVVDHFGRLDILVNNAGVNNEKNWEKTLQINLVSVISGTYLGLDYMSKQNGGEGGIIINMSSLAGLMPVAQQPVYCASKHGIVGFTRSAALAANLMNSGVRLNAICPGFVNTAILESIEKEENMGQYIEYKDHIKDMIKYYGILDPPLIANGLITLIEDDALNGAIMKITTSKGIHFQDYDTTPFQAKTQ
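NADH formation kinetics: reaction with 30 uM PGE2 and 1 mM NAD+ (final), 20 nM enzyme, Tris-HCl pH 8 with Tween 20, after 15 min compound preincubation at room temperature. Fluorescence change, last versus first of five reads.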
The depositor's hits bear a star; ? = inconclusive; & = joins results of further samples. % is set by controls: 0 for no effect and ±100 for the full control effect; potency is the fitted concentration of half-maximal effect. Some of the compounds tested; rates above refer to the full screens.

compound | HPGD block
COc1cc(/C=N/NC(=O)C(=O)NCc2cccnc2)ccc1O | -6.0%
CN1CCN(c2oc(COc3ccc(-c4ccccc4)cc3)nc2C#N)CC1 | -20.1%
O=C(NCCc1ccc(Cl)cc1)C1CCCN(S(=O)(=O)c2cnc[nH]2)C1 (configuration not stated) | -6.4%
N=C1C=CC=C2C1=NC1(CCCCC1)N2O | 2.3%
CCOC(=O)N1CCN(S(=O)(=O)c2ccc3c(c2)OCC(=O)N3)CC1 | 2.4%
CCN1C=C(C(=O)OC)C(c2cccc(C)c2)C(C(=O)OC)=C1 | ?
NC1=NC(c2cccc(O)c2)n2c(nc3ccccc32)N1 (configuration not stated) | -14.6%
O=C(CSc1ccccc1C(=O)O)NCc1ccc(Cl)cc1 | -4.9%

Other results follow.
compound | HPGD block
O=C(NNc1c2ccccc2nc2ccccc12)c1ccc(O)cc1 | -10.6%
CCOC(=O)C1=C(N)N(c2ccccc2)C(=O)C1 | -6.3%
O=S(=O)(Nc1ccc(N2CCOCC2)cc1)c1ccccc1 | -6.3%
O=C(NC1CCCc2ccccc21)c1ccccc1 (configuration not stated) | -13.4%
O=C(O)CCCCCNC(=O)c1cccc(Br)c1 | -10.2%
O=C1C=C(N2CCN(C(=O)c3ccccc3)CC2)C2(CCCCC2)O1 | -6.3%
Cc1ccc(S(=O)(=O)N(CC(=O)NC2CCCCCC2)c2ccccc2F)cc1 | -2.7%
CC(=O)N=c1c(C#N)cc2c(=O)n3ccccc3nc2n1Cc1ccccc1 | ?

(cont.)
compound | HPGD block
COC(=O)CC1COc2ccccc2N1C(=O)c1ccc(C(C)(C)C)cc1 (configuration not stated) | -4.6%
COc1ccc(CNC(=O)C(c2cccs2)N(Cc2ccco2)C(=O)Cc2cccs2)cc1 (configuration not stated) | -16.9%
CCSc1nc2ccccc2n1C(=O)/C=C/c1ccc(OC)c(OC)c1 | -9.3%
O=C(O)c1cc(O)c2c(c1)C(=O)c1cccc(O)c1C2=O | ?
Cc1ccc2c(C)ccc(O)c2n1 | -13.2%
CCc1ccccc1NC(=O)/C(=C/c1ccco1)c1ccccc1 | -16.7%
O=C(COC(=O)c1ccncc1)NCc1ccccc1 | -10.8%
Cc1ccc(N2C(=O)C(Cl)=C(N3CCN(C)CC3)C2=O)c(C)c1 | -3.0%

(list continues)
compound | HPGD block
Cc1cc(C)n(CC(O)Cn2c(C)c(C)c3ccccc32)n1 (configuration not stated) | -23.1%
O=[N+]([O-])c1cccc(C(F)(F)F)c1 | 0.8%
CCN(CC)C(=O)CSc1nnc(-c2cc(-c3ccc(Cl)cc3)nc3ccccc23)o1 | ?
COc1cc(C(C[N+](=O)[O-])c2c(-c3ccccc3)cc3ccccn23)cc(OC)c1OC (configuration not stated) | ?
CC1(C)CC(=O)C(C(C2=C(O)CC(C)(C)CC2=O)c2cccnc2)C(=O)C1 (configuration not stated) | -6.6%
COc1ncc2ncc(=O)n(Cc3ccc(F)cc3)c2n1 | -29.8%
O=C(c1cc(-c2cccc(O)c2)on1)N1CCc2ccccc2C1 | 25.1µM*
O=C(Nc1ccc2c(c1)OCCO2)c1ccc(Br)s1 | -17.3%

(next part)
compound | HPGD block
OC(CNCc1ccc(F)cc1)(c1ccc(F)cc1)c1ccc(F)cc1 | -2.2%
COCCNC(C(=O)Nc1cc(Cl)cc(Cl)c1)c1ccccc1 (configuration not stated) | -9.9%
COc1ccc(OCCSc2nnc(CC(=O)Nc3cccc(Cl)c3Cl)n2C)cc1 | -14.8%
CCc1ccc(C2C(C#N)=C(N)SC(N)=C2C#N)cc1 | 35.5µM*
O=C(O)C1CC=CCC1C(=O)NCc1ccccc1 (configuration not stated) | -7.1%
COC(=O)c1ccc(COC(=O)CNC(=O)c2ccc(-c3ccccc3)cc2)cc1 | -18.2%
CCc1ccc(NC(=O)CSc2nnc(-c3ccccn3)n2C)cc1 | -3.9%
Cc1sc2ncnc(Sc3nnc4sc5ccccc5n34)c2c1C | -16.1%

The list goes on:
compound | HPGD block
CS(=O)(=O)N(CC(=O)NCc1ccccc1Cl)C1CCCCC1 | -1.3%
O=C(O)CCSCC(=O)c1ccc2c(c1)OCCO2 | -7.0%
Cc1ccc(NC(=O)CSc2nnc(Cc3cccn3C)n2-c2ccc(F)cc2)c(C)c1 | -4.0%
c1ccc(-n2nnnc2CN2CCOCC2)cc1 | -8.7%
CCOc1ccc(N2C(=O)CC(N(O)c3ccccc3)C2=O)cc1 (configuration not stated) | -7.0%
Cc1nnc(NC(=O)CSc2nc3c(c(=O)n2C)SC(C)C3)s1 (configuration not stated) | -15.7%
O=C(c1cccc(C(F)(F)F)c1)N1CCN(C2CCCCC2)CC1 | 6.3%
O=C(CCc1ccccc1)Nc1nnc(-c2cccs2)o1 | -24.9%

Remaining list, next part
compound | HPGD block
CC(C)c1ccccc1NC(=O)COC(=O)CNC(=O)c1ccc(Br)cc1 | -3.7%
COc1cccc(/C=N/NC(=O)c2cccc([N+](=O)[O-])c2)c1OS(=O)(=O)c1ccccc1 | -10.4%
Cc1ccc(N=CC=C2OC(C)(C)C(C)(C)O2)c(C)c1 | -18.7%
COc1ccc(Cl)cc1N(CC(=O)NCC(C)C)S(=O)(=O)c1ccc(C)c([N+](=O)[O-])c1 | -12.8%
CCOC(=O)N1CCC(NC(=O)CS(=O)(=O)Cc2nc(-c3ccc(C)cc3)oc2C)CC1 | -5.2%
COc1cccc(C2/C(=C(\O)c3ccc(OC)c(OC)c3)C(=O)C(=O)N2c2cc(C)on2)c1 (configuration not stated) | -11.8%
C=CCNc1nc(NCCO)nc(N2CCCC2)n1 | -8.5%
CSc1nsc(SCC(=O)Nc2ccc3c(c2)OCCO3)n1 | -5.4%

In the list so far, these contain a thiophene ring, fused or not:
compound | HPGD block
COc1ccc(CNC(=O)C(c2cccs2)N(Cc2ccco2)C(=O)Cc2cccs2)cc1 (configuration not stated) | -16.9%
O=C(Nc1ccc2c(c1)OCCO2)c1ccc(Br)s1 | -17.3%
Cc1sc2ncnc(Sc3nnc4sc5ccccc5n34)c2c1C | -16.1%
O=C(CCc1ccccc1)Nc1nnc(-c2cccs2)o1 | -24.9%

Further structures follow.
compound | HPGD block
Cc1ccnc2nc(C(=O)NCc3cccs3)nn12 | -2.2%
Cc1cc(C)cc(NC(=O)Cn2cc3c(n2)CCCCC3)c1 | 20µM*
N#Cc1c(N2CCOCC2)nc(N2CCCCC2)c2c1CCN(C1CCCCC1)C2 | -13.3%
CCC(=O)NCCN1CCN(C(=O)CC)CC1 | -11.4%
Cn1c2c(c(=O)n(C)c1=O)C(c1cccc([N+](=O)[O-])c1)Nc1ccccc1O2 (configuration not stated) | 1.6%
COC(=O)c1[nH]c2ccc(F)cc2c1NS(=O)(=O)c1ccc(OC)cc1 | -23.9%
Cc1ccc(/C=C(\NC(=O)c2ccccc2)C(=O)OCc2ccccc2)cc1 | -5.9%
O=c1c2c(-c3ccccc3)csc2ncn1/N=C/c1c2ccccc2cc2ccccc12 | -3.8%

More results:
compound | HPGD block
CCOc1ccc(NS(=O)(=O)c2ccc(C)c(C(=O)O)c2)cc1 | -2.8%
COC(=O)C(C(C)=O)C1c2ccccc2C=C(C)N1C(=O)OC (configuration not stated) | -4.8%
CCCc1c(O)nc(SCc2ccccc2)[nH]c1=O | -6.4%
Cc1cccc(NC(=O)CSC(N)=O)c1C | -7.4%
CC1CN(CCCOc2ccc([N+](=O)[O-])cc2)CC(C)O1 (configuration not stated) | -11.8%
COc1ccc(CNC(=O)CN2C(=O)C3CCCN3c3ncc(Cl)cc32)cc1 (configuration not stated) | ?
O=Cc1ccc(OCc2ccccn2)cc1 | -11.1%
COc1ccc(Cl)cc1CN1CCN(c2nc(C)cc(C)c2C#N)CC1 | -11.3%

(next part)
compound | HPGD block
CCN1C(=O)C2C(c3cccc(F)c3)NC(C)(C(=O)OC)C2C1=O (configuration not stated) | -2.7%
Cn1c(/C=N/NC(=O)c2ccccc2Br)nc2ccccc21 | ?
O=C(COc1cccc2cccnc12)Nc1nccs1 | ?
Cc1ccc(NC(=O)CCc2nnc(SCC(=O)Nc3ccccc3C)n2C)cc1Cl | -0.4%
CC(=O)c1cc(F)c(N2CCN(C(=O)COc3ccc(F)cc3)CC2)cc1C | -10.8%
COc1cccc(-c2cc(C(=O)NN3CCOCC3)c3ccccc3n2)c1 | -10.4%
CC(=O)N1CCN=C1SCc1ccc(C)cc1 | -1.9%
CCC(=O)N1CC2(C)CN(C(=O)CC)CC(C)(C1)C2 | -6.5%

Next part
compound | HPGD block
Cn1c(=O)[nH]c(=O)c2c1nc(N1CCCCC1)n2CC(O)CN1CCCCC1 (configuration not stated) | -11.7%
Cc1ccc(C)n1NC(=O)c1ccccc1 | -3.4%
Cc1cc(C)c(C(=O)c2ccc(C(=O)N(C(C)C)C(C)C)cc2)c(C)c1 | ?
c1ccc(C[n+]2cccc(-c3ccccc3)c2)cc1 | -15.7%
CCN(CC)S(=O)(=O)N1CCC(C(=O)NC(C)CCc2ccccc2)CC1 (configuration not stated) | -1.5%
Cc1ccccc1-c1nc(Cc2ccc(Cl)cc2)no1 | -1.8%
O=C(CCc1c[nH]c2ccccc12)NCC1CCCO1 (configuration not stated) | 14.1µM*
Cc1ccc(C2CC(c3cccc(C)c3)n3nc(N)nc3N2)cc1 (configuration not stated) | -15.3%

Carrying on:
compound | HPGD block
CN1CCN(c2ccc(S(=O)(=O)N3CCCCC3)cc2NC(=O)c2ccc3ccccc3c2)CC1 | ?
COc1cccc(/C=N\NC(=O)C2=NNC(=O)C2C)c1O (configuration not stated) | -11.9%
CC1(C)CC2CC(C)(CN2c2ncnc3ccccc23)C1 (configuration not stated) | -14.1%
COc1ccc(C(=O)N/C(N)=N/c2nc3ccccc3o2)cc1 | -14.9%
CCN(CC)c1ncnc2c1ncn2Cc1c(Cl)cccc1Cl | -14.7%
Cc1nn(-c2ccccc2)c2sc(C(=O)N3CCc4ccccc4C3)cc12 | ?
CCOC(=O)C1C(=O)NC(N2CCN(c3ccccc3)CC2)=NC1c1ccccc1 (configuration not stated) | -3.4%
O=C(Nc1cccc(Cl)c1)c1cc(S(=O)(=O)NCCc2ccc(Cl)cc2)ccc1F | -13.2%

(cont.)
compound | HPGD block
Cn1c(N)c(C(=O)COC(=O)C2(c3ccc(F)cc3)CCCC2)c(=O)n(C)c1=O | -11.8%
O=S(=O)(c1ccc(Cl)s1)N1CCN(c2ncccn2)CC1 | -2.8%
CN(c1ccc(C(=O)NCc2ccccc2)cc1)S(C)(=O)=O | -2.2%
Cc1ccc(-c2nn3c(C)nnc3c3ccccc23)cc1S(=O)(=O)NCc1ccco1 | ?
O=C(O)CC[P+](c1ccccc1)(c1ccccc1)c1ccccc1 | -4.6%
Cc1ccnc(N2C(=O)C3C4CC(C(Br)C4Br)C3C2=O)c1 (configuration not stated) | 3.9%
Fc1ccc(CSc2ncnc3sc4c(c23)CCCC4)cc1 | -6.5%
COc1ccc(/C(O)=C2/C(=O)C(=O)N(Cc3cccnc3)C2c2ccco2)cc1OC (configuration not stated) | -10.2%

Next part:
compound | HPGD block
CCCS(=O)(=O)Nc1c(C(=O)O)[nH]c2ccccc12 | ?
CCOC(=O)c1c(N)sc2c1CCC(C)C2 (configuration not stated) | ?
Cc1cc(/C=N/NC(=O)C(O)(c2ccccc2)c2ccccc2)c(C)n1-c1ccccc1 | ?
O=S(=O)(Cc1ccccc1)NCc1cccnc1 | -3.6%
O=C(CS(=O)(=O)Cc1ccccc1)Nc1nc2ccccc2s1 | -2.8%
COc1ccc(S(=O)(=O)N2CCCC(C(=O)NCc3ccncc3)C2)cc1 (configuration not stated) | -10.8%
CCn1c(SCC(=O)Nc2nc(-c3ccccc3)cs2)nc2c1c(=O)n(C)c(=O)n2C | -2.6%
CC(=O)N1CCC2(CCCN(c3cccc(-c4ccccc4)c3)C2)CC1 | -22.2%

The results go on:
compound | HPGD block
Cc1cc(C(=O)COC(=O)c2ccccc2O)c(C)n1Cc1cccs1 | -16.5%
O=C(NCCc1cccs1)C1CC(c2cccc([N+](=O)[O-])c2)=NO1 (configuration not stated) | -16.9%
COc1ccc2c(c1)c(=O)cc(C)n2CC(=O)NCc1ccco1 | ?
CC(C)Cc1ccc(C#N)c(SCC(N)=O)n1 | -5.7%
C[C@@H](CCc1ccc(O)cc1)NCCc1ccc(O)c(O)c1 | 0.7%&-15.6%
Cc1nc(CN2CCCCC2)c(O)c(=O)[nH]1 | -5.4%
O=C(CN1C(=O)C2CC=CCC2C1=O)Nc1nnc(SCc2c(Cl)cccc2Cl)s1 (configuration not stated) | ?
CC(=O)N1CCc2cc(S(=O)(=O)NC(CC(C)C)C(=O)Nc3ccc4c(c3)OCCO4)ccc21 (configuration not stated) | 4.4%

The listing continues:
compound | HPGD block
CCc1nc(-c2cc3ccc(C)cc3[nH]c2=O)no1 | ?
O=C(CCOc1ccccc1)NCc1ccccc1 | -13.4%
Cc1cc(NC(=O)c2ccc(C)s2)n(-c2nc3ccccc3[nH]2)n1 | ?
CCc1nnc(NC(=O)c2ccc(S(=O)(=O)N3CCCc4ccccc43)cc2)o1 | -6.7%
CC(C)CN1C(=O)NC(NS(=O)(=O)c2ccc(N)cc2)(C(F)(F)F)C1=O (configuration not stated) | 3.5%
OCn1ncn(-c2ccccc2)c1=S | -14.7%
Cc1cccc(C)c1NC(=O)C/C(N)=N/O | 2.2%
CC(=O)Nc1cccc(C(=O)/C=C/c2cccs2)c1 | -20.3%
COc1cc(C)cc(OC)c1/C=C\C(=O)O | -2.2%
CC1Cc2ccccc2N1C(=O)COC(=O)C1=COCCO1 (configuration not stated) | -6.7%

High-throughput results deposited in PubChem by National Center for Advancing Translational Sciences (NCATS).
